RE007 growth inh: less growth of the S. pombe RE007 Vpr strain; S. pombe RE007 Vpr strain, BacTiter-Glo ATP luminescence, 24 h; control for the full effect not named in the record; hit rate 0.21% among 360,000; Potency, µM (series often up to 92.2 µM), for inactives: top-dose activity change, negative = less growth; AID 651644; active = well fitted falling curve with a large enough effect; inconclusive = small, poorly fitted or top-dose-only effect; inactive = no such curve, though single readings can be large or run the other way;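 note: % is set by controls: 0 for no effect and ±100 for the full control effect; nearly all actives have a fitted effect of over 50% in size; the assay follows cell death caused by Vpr and the record does not say whether a fall means rescue or toxicity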
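Fission yeast strain RE007, carrying one chromosomally integrated HIV-1 vpr copy, was seeded at OD 0.01 in PMG+AL medium with 23 nL pinned compound. After 24 h at 30 °C and 99% humidity, viability was read by BacTiter-Glo luminescence.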
NS1 function inh: inhibitors of influenza NS1 protein function; S. cerevisiae slowed by influenza A NS1, growth recovery by OD600; Potency, µM (doses to about 46.1 µM), inactives show top-dose activity, positive = more growth; hit rate 0.4% among 270,000; AID 2326; note: actives are rising curves; nearly all actives have a fitted effect of over 50% in size
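Compounds were scored for reversing the slow growth caused by influenza A NS1 in S. cerevisiae, measured by optical density at 600 nm. Assay medium contained 2% galactose at pH 6.0; NS1-free yeast of the same strain were the positive control.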
Cruzain inh noDet: blocks cruzain activity in detergent-free assay. P25779. purified cruzain, Z-FR-AMC fluorescence, no detergent. Potency, µM, for inactives: max response, negative = inhibition, most hits filed as inhibitors. hit rate 2.3% among 200,000; active = well fitted curve in the direction sought with a large enough effect; inconclusive = small, poorly fitted or top-dose-only effect, or another doubt; inactive = no such curve, though single readings can be large; an effect the other way counts as inactive or inconclusive;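 note: plate controls were enzyme without inhibitor for no effect and buffer without enzyme for full effect; nearly all actives have a fitted effect of over 40% in size; top concentration of the series not given in the record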
Target sequence (P25779 123-467 limits assumed): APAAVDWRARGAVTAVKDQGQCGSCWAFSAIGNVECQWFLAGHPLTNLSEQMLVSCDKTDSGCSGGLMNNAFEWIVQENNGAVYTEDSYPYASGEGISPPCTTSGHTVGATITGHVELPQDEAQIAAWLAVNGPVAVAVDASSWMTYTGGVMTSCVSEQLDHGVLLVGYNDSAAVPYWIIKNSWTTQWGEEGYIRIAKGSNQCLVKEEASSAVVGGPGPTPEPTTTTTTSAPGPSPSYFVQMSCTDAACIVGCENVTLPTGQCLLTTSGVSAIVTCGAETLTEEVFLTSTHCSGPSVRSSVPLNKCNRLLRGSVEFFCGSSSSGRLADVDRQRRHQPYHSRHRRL
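Purified cruzain at 1.5 nM, pre-incubated 15 min with compound at room temperature in 100 mM sodium acetate pH 5.5, 5 mM DTT, 0.00005% Triton X-100. Reaction started with 2 uM Z-FR-AMC; AMC fluorescence increase over 60 s gives rate.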
Lassa entry inh: inhibitors of Lassa virus binding or cell entry. Lassa virus pseudotype entry inhibition, cell reporter; control for the full effect not named in the record. AID 540256. Potency, µM (doses to about 37.9 µM), without a hit: at the highest dose activity change, negative = inhibition, hits mostly inhibitors. hit rate 1.2% among 300,000; active means well fitted inhibition curve with a large enough effect; inconclusive means small, poorly fitted or top-dose-only effect, or effect the other way; inactive means flat fitted curve, though single readings scatter; tested in HEK293 cells; note: % is set by controls: 0 for no effect and ±100 for the full control effect; nearly all actives have a fitted effect of over 50% in size; luciferase read-out
StopGo reporter: FMDV 2A StopGo reporter, luciferase signal; human cells with a luciferase reporter of 2A StopGo recoding; control for the full effect not named in the record; hit rate 1.2% among 410,000; Potency, µM (highest dose often 57.9 µM), inactives show at the top dose signal change, negative = less light; active = well fitted falling curve with a large enough effect; inconclusive = small, poorly fitted or top-dose-only effect; inactive = no such curve, though single readings can be large or run the other way; tested in HEK293T cells; note: % is set by controls: 0 for no effect and ±100 for the full control effect; nearly all actives have a fitted effect of over 45% in size; luciferase light after 4 h
MARV entry inh: blocks Marburg virus binding to or entry into cells; Marburg virus pseudotyped entry inhibition, cell reporter; control for the full effect not named in the record; about a third of the inactives were read at about 46 µM; Potency, µM (top dose mostly 37.8 µM), for the others: top-dose activity change, negative = inhibition, actives largely listed as inhibitors; AID 540276; hit rate 1.8% among 300,000; active = well fitted inhibition curve with a large enough effect; inconclusive = small, poorly fitted or top-dose-only effect, or effect the other way; inactive = flat fitted curve, though single readings scatter; tested in HEK293 cells; about a fifth of its hits are not listed in these tables; note: % is set by controls: 0 for no effect and ±100 for the full control effect; luciferase read-out
Cruzain inh Det: inhibitors of Trypanosoma cruzi cruzain with detergent | Potency, µM, without a hit: max response, negative = inhibition, most hits filed as inhibitors | purified cruzain, Z-FR-AMC fluorescence, 0.01% Triton | AID 1478 | P25779 | hit rate 0.43% among 200,000; active = well fitted curve in the direction sought with a large enough effect; inconclusive = small, poorly fitted or top-dose-only effect, or another doubt; inactive = no such curve, though single readings can be large; an effect the other way counts as inactive or inconclusive;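 note: plate controls were neutral wells for no effect and buffer without enzyme for full effect; nearly all actives have a fitted effect of over 40% in size; top concentration of the series not given in the record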
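Steps: dispense cruzain (1.5 nM final) in acetate buffer pH 5.5 with DTT and 0.01% Triton X-100; pin-transfer compounds; incubate 15 min RT; add Z-FR-AMC (2 uM final); read fluorescence every 30 s, using the 60 s intensity change.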
SARS PLpro yeast: blocks SARS-CoV papain-like protease in a yeast assay | S. cerevisiae expressing SARS-CoV PLpro, growth rescue; control for the full effect not named in the record | Potency, µM (top dose mostly 32.9 µM), for the others: at the top dose activity, positive = growth rescue | hit rate 0.19% among 330,000 | AID 485353; note: 0% is about no effect; nearly all actives have a fitted effect of over 55% in size; growth read by luminescence after 48 h
Numbers without * were called inactive; ? = inconclusive; · = no result given; & = joins results of further samples; [ ] = another dose, or the depositor's remark. Unless noted, calls come from the whole dose curve; as a rule, active means well fitted rising curve with a large enough effect; inconclusive means small, poorly fitted or top-dose-only effect; inactive means no such curve, though single readings can be large or run the other way. Potency is the fitted concentration of half-maximal effect.

SMILES	RE007 growth inh	NS1 function inh	Cruzain inh noDet	Lassa entry inh	StopGo reporter	MARV entry inh	Cruzain inh Det	SARS PLpro yeast
COc1ccc(N2CC(C(=O)NC3=NCCS3)CC2=O)cc1 (stereo not given)	9%	3%	·	·	2%	·	·	1%
COc1ccc2c(C=O)cn(C)c2c1	3%	5%	·	-22%[46.1 µM]	21%	?	·	-2%
O=C(CC1OCC2CCCN2C1=O)Nc1ccc([N+](=O)[O-])cc1 (stereo not given)	?	-52%	·	15%	-6%	?	·	-26%
CCOc1ccc(NC(=O)CCC(=O)c2ccc(Br)cc2)cc1	0%	-1%	·	?	4%	?	·	-2%
COc1cc(CNC(=O)C2CCCC2)cc(OC)c1OC	-10%	1%	·	4%	8%	-29%	·	3%
Cc1ccc(C(=O)NC2CCCN(c3ccc(C(F)(F)F)cn3)C2)cn1 (stereo not given)	-10%	2%	·	21%[46.1 µM]	-22%	-8%[46.1 µM]	·	0%
COC(=O)C1CN(S(=O)(=O)c2ccc(NC(C)=O)cc2)CCS1 (stereo not given)	2%	-3%	·	-10%[46.1 µM]	-6%	-1%[46.1 µM]	·	-6%
COc1cc(CN2CCc3ccccc3C2)ccc1O	-2%	5%	·	·	32µM*	·	·	0%
CCOc1ccc(CCNC(=O)COC(=O)/C=C/c2cccc(OC)c2)cc1OCC	-12%	·	·	8%	0%	11%	·	-6%
Cc1cc(C(=O)N[C@H](c2ccccc2)[C@@]2(C)C[C@@H]2[C@@H](C)C(=O)Nc2ccc3ccccc3c2)no1	12%	8%	-7%&-1%	?	?	?	-1.4%&1.2%	14%
O=C(NC1CCCCC1)C1c2ccccc2C(=O)N1Cc1ccc2c(c1)OCO2 (stereo not given)	-9%	·	·	?	7%	-24%	·	1%
O=C(Nc1c(C(=O)N2CCN(c3ccccc3)CC2)oc2ccccc12)c1ccc(Br)o1	·	·	?	?	43%[activator]	?	-8.3%	·
Cc1ccc(N(C)S(=O)(=O)c2nnc(NC(=O)C3CCCCC3)s2)cc1	·	·	7%	?	-9%	·	-0.5%	·
C(=N\c1nccs1)/Nc1nccs1	16%	1%	-2%	1%	1%	-1%	-0.8%	-5%
Cc1ccc(-c2nc(C3CCCN(S(=O)(=O)c4ccc(C(C)(C)C)cc4)C3)no2)cc1 (stereo not given)	3%	4%	-4%	·	-12%	2%	5.8%	-2%
COCCNc1nc(N)c([N+](=O)[O-])c(NC2CCCCC2)n1	7%	-5%	·	-7%[46.1 µM]	-11%	-20%[46.1 µM]	·	-3%
O=C(NCCCN1CCOCC1)c1ccc(Cl)c(S(=O)(=O)N2CCCCCC2)c1	4%[3.69 µM]	0%	-3%	-27%	-21%	?	5.7%	-7%
Cc1ccc2oc(=O)c3cnn(CC(=O)NCCC(C)C)c3c2c1	-3%	3%	8%	·	-7%	·	-3.2%	-1%
CC(=O)Nc1ccc(NC(=O)C(C)NC(C)c2cccc3ccccc23)cc1 (stereo not given)	-3%	-13%	·	?	-23%	?	·	2%
CCOc1ccc(NC(=O)c2c(NC(=O)c3ccccc3Br)sc3c2CCC(C)C3)cc1 (stereo not given)	·	·	6%	6%[46.1 µM]	-2%	·	-3.8%	·
Cc1ccc(OCC(=O)N(Cc2ccc(N(C)C)cc2)C2CCS(=O)(=O)C2)cc1C (stereo not given)	3%	9%	·	?	-10%	?	·	0%
COc1ccc(NC(=O)CSc2nc3[nH]c(=O)cc(O)c3s2)c(OC)c1	-3%	·	·	11%	-13%	-15%	·	1%
CC(=O)OCC[C@H](NS(=O)(=O)OCC(Cl)(Cl)Cl)c1ccccc1	4%	14%	·	·	-10%	·	·	11%
COc1ccc(CN2C(=O)c3cccnc3C2=O)cc1S(=O)(=O)NC1CCCCC1C (stereo not given)	0%	-1%	·	·	9%	·	·	6%
CCCNC(=O)c1c(Cl)cnn1-c1ccc(C)cc1	-2%	-2%	·	?	2%	6%[46.1 µM]	·	0%

Record cards, from the list above. Values in the order: RE007 growth inh | NS1 function inh | Cruzain inh noDet | Lassa entry inh | StopGo reporter | MARV entry inh | Cruzain inh Det | SARS PLpro yeast
Profile of O=C(NCCCN1CCOCC1)c1ccc(Cl)c(S(=O)(=O)N2CCCCCC2)c1 : 4%[3.69 µM] | 0% | -3% | -27% | -21% | ? | 5.7% | -7%
Profile of CC(=O)Nc1ccc(NC(=O)C(C)NC(C)c2cccc3ccccc23)cc1 (stereo not given) : -3% | -13% | · | ? | -23% | ? | · | 2%
Profile of Cc1cc(C(=O)N[C@H](c2ccccc2)[C@@]2(C)C[C@@H]2[C@@H](C)C(=O)Nc2ccc3ccccc3c2)no1 : 12% | 8% | -7%&-1% | ? | ? | ? | -1.4%&1.2% | 14%
Profile of COc1cc(CNC(=O)C2CCCC2)cc(OC)c1OC : -10% | 1% | · | 4% | 8% | -29% | · | 3%
Profile of Cc1ccc(N(C)S(=O)(=O)c2nnc(NC(=O)C3CCCCC3)s2)cc1 : · | · | 7% | ? | -9% | · | -0.5% | ·

(continued)
SMILES	RE007 growth inh	NS1 function inh	Cruzain inh noDet	Lassa entry inh	StopGo reporter	MARV entry inh	Cruzain inh Det	SARS PLpro yeast
CCOC(=O)c1sc(/N=C/C2=C(O)CC(C)(C)CC2=O)c(C(=O)OCC)c1C	-16%	-10%	·	5%[46.1 µM]	22%	?	·	-1%
CC(C)n1c(-c2ccc(C(C)(C)C)cc2)n[nH]c1=S	-7%	-65%	4%	-18%	?	6%	-6.5%	16%
CC1(C)Cc2c(cnn2-c2ccc(F)cc2)C(NC(=O)c2ccco2)C1 (stereo not given)	3%	1%	·	-1%	15%	0%	·	-6%
Cc1ccc(C(=O)C2CCN(CC(=O)NCc3ccc(F)cc3)CC2)cc1	-2%	-3%	·	9%[46.1 µM]	8%	10%[46.1 µM]	·	11%
Cc1ccc(C(=O)Nc2scc(-c3ccccc3)c2C(=O)O)o1	-12%	5%	·	-5%	16%	-1%[46.1 µM]	·	2%
CC(=O)Nc1nonc1NC(=O)c1ccc(C(C)(C)C)cc1	-5%	0%	5%	?	11%	?	-3.7%	-4%
Cn1c(=O)c2c(nc(Oc3ccc4c(c3)OCO4)n2Cc2ccc(Cl)cc2)n(C)c1=O	0%	-12%	12%	17%	?	?	-0.2%	1%
CCS(=O)(=O)Nc1ccc(-c2cc(-c3ccccc3)c3cc(C)ccc3n2)cc1	5%	8%	-4%	?	0%	?	3.9%	-74%
C=CCN1C(=O)/C(=C\c2ccc(Cl)cc2)N=C1SCC(=O)NC1CCCCC1	2%	-3%	10µM*	9%	-23%	5%	1.0%	-10%
COc1cc(C(CC(=O)NCc2ccccc2)N2Cc3ccccc3C2=O)cc(OC)c1OC (stereo not given)	·	·	4%	8%[46.1 µM]	30%	·	-3.8%	·
C=CCc1ccc(OC(=O)NC2CCCCC2)c(OC)c1	19%	-2%	·	12%	64%[activator]	?	·	-1%
CCOC(=O)c1ccc(NC(=O)CSc2nnc(CNC(=O)c3ccc(OC)cc3)n2CC)cc1	·	·	?	21%[46.1 µM]	30%[activator]	?	-0.4%	·
CCNS(=O)(=O)c1ccc(NC(=O)Cn2cc([N+](=O)[O-])cn2)cc1	14%	·	·	0%	-6%	?	·	0%
Cc1c(Cl)cccc1NC(=O)[C@@H](NC(=O)c1ccccc1Cl)C(C)C	-2%	14%	8%	1%	0%	17%	0.3%	-5%
CCC(C(=O)NC1CCN(C)CC1)c1ccccc1 (stereo not given)	0%	9%	·	·	-13%	·	·	13%
CCOC(=O)CC(NS(=O)(=O)c1ccc2[nH]c3c(c2c1)CCCC3)c1ccccc1Cl (stereo not given)	·	·	-14%	?	24%	·	-13%	·
Cc1cccc(NC(=O)NC2(C(=O)NCc3ccco3)CCCCC2)c1	-8%	-1%	·	17%[46.1 µM]	0%	?	·	0%
COc1cc(/C=C(\C#N)C(=O)Nc2cccc(C(=O)O)c2)ccc1OCc1ccc(Cl)cc1	-11%	-5%	·	18%[46.1 µM]	4%	?	·	-1%
O=C(NC1CC1)c1c(O)c2ccccc2[nH]c1=O	-5%	-42%	·	·	36%[activator]	·	·	0%
O=C(CNC(=S)N(Cc1ccccc1)Cc1cccs1)NCc1ccc(F)cc1	1%	·	·	?	2%	?	·	-6%
COc1ccc(OCCNC(=O)c2ccc(C)cc2)cc1	5%	-2%	·	-19%[46.1 µM]	17%	?	·	-4%
C/C(=N/NS(C)(=O)=O)c1ccc2ccccc2c1	8%	-2%	-7%	13%	16%	10%	1.9%	-4%
CCOC(=O)c1c(Nc2ccccc2N)cc(C)nc1C	2%	-1%	-13%	17%	-10%	-25%	-3.7%	2%
CCC(=O)N1CCc2cc(Br)cc(S(=O)(=O)N3CCN(c4cc(C)ccc4C)CC3)c21	·	·	0%	?	8%	12%[46.1 µM]	1.1%	·
O=C(CCSc1nnc2ccc3ccccc3n12)Nc1ccc(F)cc1	8%	-6%	-3%	0%	-21%	5%	-0.7%	2%

Reprinted from the results shown for reference:
SMILES	RE007 growth inh	NS1 function inh	Cruzain inh noDet	Lassa entry inh	StopGo reporter	MARV entry inh	Cruzain inh Det	SARS PLpro yeast
CCOC(=O)c1sc(/N=C/C2=C(O)CC(C)(C)CC2=O)c(C(=O)OCC)c1C	-16%	-10%	·	5%[46.1 µM]	22%	?	·	-1%
CC(C)n1c(-c2ccc(C(C)(C)C)cc2)n[nH]c1=S	-7%	-65%	4%	-18%	?	6%	-6.5%	16%

Not a hit list, and some 4.7% of all compounds hit somewhere here.
